Compound activity (PubChem)
eIF4H inh – inhibitors of RNA binding by human eIF4H | inhibition, % at 35 µM | actives 0.94% (n = 290,000) | Q15056 | eIF4H fluorescence polarization binding assay;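 active = 50% or more with normal probe brightness, or confirmed in later tests; inconclusive = above 50% with abnormal brightness, or retests that disagree; inactive = below 50% or failed in later tests; about a fifth of its hits are not listed in these tables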;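 also: calls also rest on retests at 20 µM and on dose response follow-up; 0% = protein and probe with vehicle and 100% = probe without protein; strong numbers were not always called active; many hits fall short of the cut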
MT1-MMP act inh – MT1-MMP (human) activation inhibition; HT1080 RFP-PRO-GFP cells, GFP/RFP ratio fluorescence, overnight; percent of plate control window, DMSO zero; actives 0.061% (n = 360,000); P50281; AID 651647; GFP/RFP ratio change, % at 20 µM;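 active = GFP/RFP ratio change of at least 30% with cell ATP level not reduced by more than half and red fluorescence within 50% of control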; also: strong numbers were not always called active
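Read-out: GFP/RFP fluorescence ratio; Test system: RFP-PRO-GFP reporter HT1080 cells; Compound dosing: single-point 20 µM compound, 1% DMSO; Times: overnight compound exposure at 37 °C.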
UUG fidelity – alters start codon recognition fidelity in yeast | actives 0.13% (n = 350,000) | S. cerevisiae UUG-firefly luciferase reporter, luminescence/redox ratio | activity score, % at 18.7 µM;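 active = replicate mean at a twofold rise or more, about +100% in these data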;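 also: firefly luciferase made from a UUG start codon reports start codon fidelity; reporter light over untreated wells divided by growth signal over untreated wells; some hits fall short of that in this replicate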
HIV Env fusion – HIV envelope-mediated fusion inhibition; HeLa-JRFL Env/CEM21 cell fusion, luciferase; inhibition, % at 12.3 µM; actives 1.1% (n = 360,000);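 active = mean replicate inhibition score of at least 50 and every replicate individually at or above 50; inconclusive = only one of the two criteria met; inactive = mean below 50 and not all replicates reaching 50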;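 also: 0% = plate neutral controls and 100% = maraviroc near 300 nM; one replicate is shown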
Rce1 inhib – inhibitors of yeast Ras-converting enzyme | AID 2563 | calls only | actives 0.27% (n = 290,000) | yeast membranes, quenched prenylated peptide cleavage fluorescence | Q03530;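 active = fall in fluorescence gain of 50% or more versus controls, with final raw signal at or below 3038400; inconclusive = same 50% fall but final raw signal above 3038400; inactive = fall in fluorescence gain under 50%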;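 also: plate controls were neutral control wells for no effect and wells lacking membranes for full effect; tested at 10 µM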
CSC inhib – cancer stem cell inhibition | cancer stem cell-like cells viability, luminescence | inhibition, % at 7.5 µM | actives 1.1% (n = 300,000);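 active = mean at 75% or more and at least half the replicates too; inconclusive = mean and replicates disagree; tested in HMLE shEcad cells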;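 also: 0% = median of negative and 100% = median of positive control wells; the first replicate is given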
PABP polyA inh – PABP-poly(A) binding inhibition; actives 1% (n = 290,000); P11940; inhibition, % at 35 µM; PABP-poly(A) RNA binding, fluorescence polarization;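 active = 50% or more with normal probe brightness, or confirmed in later tests; inconclusive = above 50% with abnormal brightness, or retests that disagree; inactive = below 50% or failed in later tests; about a fifth of its hits are not listed in these tables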;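 also: calls also rest on retests at 20 µM and on dose response follow-up; controls were probe without protein and protein plus probe with vehicle; some compounds called inactive have numbers as strong as hits; many hits fall short of the cut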
Target sequence (P11940 whole entry, looked up): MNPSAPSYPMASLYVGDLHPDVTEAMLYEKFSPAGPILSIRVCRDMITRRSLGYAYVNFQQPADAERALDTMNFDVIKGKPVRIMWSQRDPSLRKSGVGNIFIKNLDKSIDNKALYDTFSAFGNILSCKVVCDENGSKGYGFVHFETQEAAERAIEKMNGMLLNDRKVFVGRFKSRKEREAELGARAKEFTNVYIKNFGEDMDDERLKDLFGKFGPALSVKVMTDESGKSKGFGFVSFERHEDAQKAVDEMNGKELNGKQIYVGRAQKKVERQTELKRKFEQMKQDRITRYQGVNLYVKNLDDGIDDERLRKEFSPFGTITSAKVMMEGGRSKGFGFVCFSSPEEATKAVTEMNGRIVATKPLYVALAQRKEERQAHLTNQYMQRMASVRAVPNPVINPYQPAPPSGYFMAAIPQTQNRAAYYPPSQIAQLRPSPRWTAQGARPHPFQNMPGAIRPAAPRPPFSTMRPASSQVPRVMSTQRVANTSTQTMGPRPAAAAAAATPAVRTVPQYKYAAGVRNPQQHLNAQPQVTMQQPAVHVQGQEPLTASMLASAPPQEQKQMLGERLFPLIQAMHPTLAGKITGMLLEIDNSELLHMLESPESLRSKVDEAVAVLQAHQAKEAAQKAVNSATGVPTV
eIF4H inh retest – recorded beside eIF4H inh, whose call it bears; inhibition, %; compound at 20 µM; confirmation average;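 mean of two retest wells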
PABP polyA inh retest – also measured in PABP polyA inh; calls as there; inhibition, %; compound at 20 µM; confirmation repeats;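 mean of two retest wells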
MT1-MMP act inh RFP – recorded beside MT1-MMP act inh, whose call it bears; RFP signal change, %; measured here: RFP expression control read;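 0 = vehicle wells; hits needed this value within 50% of zero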
Starred values were filed as active, the others as inactive; i = inactive; u = inconclusive; x = not tested or not shown.

SMILES	eIF4H inh	MT1-MMP act inh	MT1-MMP act inh RFP	UUG fidelity	HIV Env fusion	Rce1 inhib	CSC inhib	PABP polyA inh	others
C=CCOc1c(CNn2nnnc2N)cccc1OC	-1	7	7	-12	x	x	-2	35
CCNC(=S)N1CCC(n2cnc3ccccc32)CC1	-7	3	2	x	-2	i	-2	6
COc1ccccc1N1CCN(S(=O)(=O)c2ccc3c4c(cccc24)C(=O)N3C)CC1	-7	x	x	x	x	i	x	2
CCC(C)(C)n1nnnc1C(c1cccnc1)N1CCCC(C)C1 (stereo unspecified)	-3	-5	0	-20	6	i	-18	2
O=C(C1CCC(Cn2c(=S)[nH]c3ccccc3c2=O)CC1)N1CCN(c2ccccc2)CC1 (stereo unspecified)	x	-4	-16	-8	u	i	40	x
NC(Cc1ccccc1)c1csc(Nc2nccc(C(F)(F)F)n2)n1 (stereo unspecified)	x	3	0	-18	-61	x	x	x
Cc1ccc(C)c(S(=O)(=O)Nc2ccc(O)c(C(=O)O)c2)c1	-4	0	0	x	-2	i	4	10
COc1ccc(OC)c(NC(=O)COC(=O)Cc2ccc(-c3ccccc3)cc2)c1	1	-4	0	-4	-13	i	-14	-6
COc1ccc(-n2nnc3c(=O)n(Cc4ccccc4C)cnc32)cc1	-4	4	1	-15	x	i	-8	1
CCN1CCSc2ccc(C(=O)NCc3cc(Br)ccc3OC)cc21	-22	-2	-2	-10	11	i	3	-19
CC(C)C[C@H]1CN=C(N(C)C)N1CC1CCCC1	x	0	0	-17	8	x	-10	x
CCOc1ccc(OCC(=O)Nc2ccc(OC)cc2)cc1	-7	-4	1	-6	-43	i	8	-3
N/C(Cc1ccc([N+](=O)[O-])cc1)=N\OC(=O)COc1ccccc1Cl	14	3	3	x	11	i	5	7
O=C(c1ccccc1Cl)c1c(O)c2ccccc2oc1=O	x	0	8	3	11	i	10	x
COc1cccc(-c2noc(CCCC(=O)N3CCOCC3)n2)c1	5	-1	2	x	-20	i	1	3
Cc1ccc(-n2cnnn2)cc1Cl	8	0	2	x	16	i	-3	0
NC(=O)c1ccsc1NC(=O)c1cc(=O)c2ccccc2o1	4	-4	1	-3	-105	x	16	9
O=C(O)c1cc(-c2ccc(-c3c(-c4ccc5c(c4)OCO5)noc3-c3ccsc3)cc2)nc2ccccc12	46	9	-8	-20	-52	i	37	5
CCNc1nc(NC(C)C)nc(N(C#N)CC(=O)OC)n1	12	1	2	x	0	i	-5	0
COc1ccc2nc(SCC(=O)N3CCCCC3)c(C#N)cc2c1	-2	6	5	-2	-8	i	-9	3
Fc1ccccc1C1c2cccn2CCN1C(=S)Nc1cccc(Br)c1 (stereo unspecified)	-2	1	0	x	-17	i	x	-11
Nc1nc(-c2cccs2)c(CC(=O)O)s1	88	-58	0	-1	-12	i	-15	-4	eIF4H inh retest=-15;PABP polyA inh retest=8
Cc1cc(C(=O)COC(=O)c2cccc(S(=O)(=O)N(C)C)c2)c(C)n1CC1CCCO1 (stereo unspecified)	x	2	-2	-33	0	x	x	x
OCc1ccccc1O[C@@H]1O[C@H](CO)[C@@H](O)[C@H](O)[C@H]1O	-1	1	5	-23	x	i	14	-3
COc1ccc(OCC(=O)N(C)Cc2ccccc2)cc1	-5	3	5	-6	x	i	-5	1
O=C(CN1CCOCC1)Nc1ccc2c(c1)OCCO2	5	1	4	-3	16	i	-11	17
O=C(COCc1cc(-c2ccc3c(c2)OCO3)on1)Nc1cccnc1Cl	-8	-2	0	1	-3	i	11	2
COc1ccc(CNC(=O)c2ccc(CNc3c(NC4CCCCC4)c(=O)c3=O)cc2)cc1	0	1	5	-10	26	i	0	72	eIF4H inh retest=6;PABP polyA inh retest=1
O=C(CC(c1ccccc1)c1ccccc1O)N1CCCCC1 (stereo unspecified)	2	-1	1	-14	17	i	-13	14
O=C1CC2(CCN(C(=O)COc3ccc(F)cc3)CC2)Oc2ccccc21	x	3	3	-15	x	i	-4	x
Cc1ccc(C(=O)Cn2nnc(-c3ccccc3)n2)cc1	0	-2	-2	x	-5	i	-3	-12
Cc1cc(=O)oc2cc(OCC(=O)OCC(=O)Nc3ccc4ccccc4c3)ccc12	-6	2	2	-12	x	i	0	15
N#Cc1ccccc1CN1C(=O)c2ccccc2S1(=O)=O	-9	2	3	5	11	i	-10	20
Cc1[nH][nH]c(=O)c1C=Nc1ccc(C(F)(F)F)cc1	-9	1	0	x	6	i	2	13
O=[N+]([O-])c1ccc(OC(F)F)c(/C=N/n2cnnc2)c1	-1	0	1	x	8	x	22	-7
N#Cc1cccnc1N1CCN(C(=O)c2ccccc2)CC1	9	-9	-4	-6	2	i	-4	8
CN1CCN(NC(=O)c2cccs2)CC1	1	3	8	x	-6	i	x	-7
COc1ccc(-c2c3c(=O)n(C)c(=O)n(C)c3cn2NC(C)=O)cc1	-8	3	5	-11	-35	i	-12	4
O=C(COc1ccc(/C=N/NC(=O)c2ccccc2)cc1)Nc1ccc([N+](=O)[O-])cc1	-10	-2	-3	6	x	i	3	-2
CCN1CCN(C(CNS(=O)(=O)c2ccc(OC)cc2)c2cccnc2)CC1 (stereo unspecified)	4	-1	5	8	2	i	-5	2
COc1ccc(CC(=O)N(Cc2ccccc2)C(C)C)cc1	-3	-3	-5	-22	19	i	1	-4
CC(NC(=O)C(C)N1C(=O)c2ccccc2C1=O)c1ccccc1 (stereo unspecified)	-12	-2	-5	-31	4	i	-5	3
CCc1cccc(NC(=O)C2CCCN(S(=O)(=O)c3c(C)[nH]c(=O)[nH]c3=O)C2)c1 (stereo unspecified)	2	1	1	x	x	i	-6	-2
O=C(Cn1cc(C(=O)C2CC2)c2ccccc21)Nc1ccc(F)cc1	-6	4	3	-15	11	i	-10	4
CC1C(=O)N2CCCc3cc(NC(=O)COc4ccccc4)cc1c32 (stereo unspecified)	x	-4	-1	8	-5	i	-7	x
CC(C)c1csc(CN2CCC(n3nccc3NC(=O)Cc3ccccc3)CC2)n1	10	-2	-6	-4	-5	i	0	3
CC1(C(=O)Nc2ccc3[nH]ncc3c2)CCN1C(=O)C/C=C/c1ccccc1 (stereo unspecified)	x	-4	0	-17	8	x	x	x
O/N=C/c1cc(Cl)ccc1OCc1ccccc1Cl	7	5	5	-13	-61	i	u	9
Nc1cc(=O)[nH]c(SCC(=O)Nc2ccccc2Sc2ccccc2)n1	4	1	-11	-11	-7	i	-11	34
COC(=O)c1cc(S(=O)(=O)Nc2ccc(C)c(F)c2)c[nH]1	-10	4	4	-4	4	i	23	-5
CCn1c(=S)sc2c(=O)n(CC(=O)Nc3cccc(Cl)c3)c(C)nc21	-11	3	-1	-13	37	i	17	-4
CSCCC(NS(=O)(=O)c1ccc(C)cc1)C(=O)Nc1ccc(C)cn1 (stereo unspecified)	x	x	x	-7	-14	i	-1	x
COc1ccc(CNS(=O)(=O)c2c(C(=O)N3CCCCCC3)c(C)n(C)c2C)cc1	-2	3	6	2	1	i	-20	1
CN(C)S(=O)(=O)n1cc(/C=C(\NC(=O)c2ccccc2)C(=O)NCCN2CCOCC2)c2ccccc21	-8	-2	-4	-4	2	i	6	2
Cc1ccccc1OCC(O)COc1ccccc1C	x	-1	-1	-7	-1	x	x	x
Cc1cc2c(cc1S(=O)(=O)NCc1ccccc1)NC(=O)CO2	x	3	5	1	6	i	-4	x
COc1cccc(OC)c1C(=O)NC(=S)N1CCCCC1c1cccnc1 (stereo unspecified)	0	2	2	-17	x	i	-12	3
CC(=O)c1c(C)[nH]c(C(=O)OCC(=O)N(Cc2ccccc2)C(C)(C)C)c1C	x	2	0	-8	18	x	x	x
COc1ccc(CNN2CCCCC2C(=O)Nc2ccc(OC)c(OCC(C)C)c2)cc1OC (stereo unspecified)	5	-1	3	x	-3	i	-12	-8
COCCN1C(=O)C(=O)/C(=C(/O)c2ccc(S(=O)(=O)N3CCOCC3)cc2)C1c1cccc(Cl)c1 (stereo unspecified)	-6	2	-3	x	-17	i	-7	3

(listing goes on)
SMILES	eIF4H inh	MT1-MMP act inh	MT1-MMP act inh RFP	UUG fidelity	HIV Env fusion	Rce1 inhib	CSC inhib	PABP polyA inh	others
CCN(CC(=O)Nc1cc(Cl)ccc1C)C(=O)c1ccc(=O)n(Cc2ccccc2)n1	-1	-4	0	-12	110*	i	2	-3
CN(C)S(=O)(=O)c1cc(NC2CC(=O)N(c3ccc(F)cc3)C2=O)ccc1Cl (stereo unspecified)	15	1	1	x	2	i	-16	6
COc1ccc(OC)c(S(=O)(=O)NCC(c2ccc(F)cc2)N2CCN(C)CC2)c1 (stereo unspecified)	x	-1	0	x	3	i	-8	x
CC1=NN(c2ccc(C)cc2)C(=O)/C1=C\C=C\c1ccccc1	7	-9	-9	x	-32	i	78*	11

Nothing new here: 17 of the compounds above.
SMILES	eIF4H inh	MT1-MMP act inh	MT1-MMP act inh RFP	UUG fidelity	HIV Env fusion	Rce1 inhib	CSC inhib	PABP polyA inh	others
CC1C(=O)N2CCCc3cc(NC(=O)COc4ccccc4)cc1c32 (stereo unspecified)	x	-4	-1	8	-5	i	-7	x
CC(C)c1csc(CN2CCC(n3nccc3NC(=O)Cc3ccccc3)CC2)n1	10	-2	-6	-4	-5	i	0	3
CC1(C(=O)Nc2ccc3[nH]ncc3c2)CCN1C(=O)C/C=C/c1ccccc1 (stereo unspecified)	x	-4	0	-17	8	x	x	x
O/N=C/c1cc(Cl)ccc1OCc1ccccc1Cl	7	5	5	-13	-61	i	u	9
Nc1cc(=O)[nH]c(SCC(=O)Nc2ccccc2Sc2ccccc2)n1	4	1	-11	-11	-7	i	-11	34
COC(=O)c1cc(S(=O)(=O)Nc2ccc(C)c(F)c2)c[nH]1	-10	4	4	-4	4	i	23	-5
CCn1c(=S)sc2c(=O)n(CC(=O)Nc3cccc(Cl)c3)c(C)nc21	-11	3	-1	-13	37	i	17	-4
CSCCC(NS(=O)(=O)c1ccc(C)cc1)C(=O)Nc1ccc(C)cn1 (stereo unspecified)	x	x	x	-7	-14	i	-1	x
COc1ccc(CNS(=O)(=O)c2c(C(=O)N3CCCCCC3)c(C)n(C)c2C)cc1	-2	3	6	2	1	i	-20	1
CN(C)S(=O)(=O)n1cc(/C=C(\NC(=O)c2ccccc2)C(=O)NCCN2CCOCC2)c2ccccc21	-8	-2	-4	-4	2	i	6	2
Cc1ccccc1OCC(O)COc1ccccc1C	x	-1	-1	-7	-1	x	x	x
Cc1cc2c(cc1S(=O)(=O)NCc1ccccc1)NC(=O)CO2	x	3	5	1	6	i	-4	x
COc1cccc(OC)c1C(=O)NC(=S)N1CCCCC1c1cccnc1 (stereo unspecified)	0	2	2	-17	x	i	-12	3
CC(=O)c1c(C)[nH]c(C(=O)OCC(=O)N(Cc2ccccc2)C(C)(C)C)c1C	x	2	0	-8	18	x	x	x
COc1ccc(CNN2CCCCC2C(=O)Nc2ccc(OC)c(OCC(C)C)c2)cc1OC (stereo unspecified)	5	-1	3	x	-3	i	-12	-8
COCCN1C(=O)C(=O)/C(=C(/O)c2ccc(S(=O)(=O)N3CCOCC3)cc2)C1c1cccc(Cl)c1 (stereo unspecified)	-6	2	-3	x	-17	i	-7	3
CCN(CC(=O)Nc1cc(Cl)ccc1C)C(=O)c1ccc(=O)n(Cc2ccccc2)n1	-1	-4	0	-12	110*	i	2	-3
